StopGo RLuc = FMDV 2A StopGo reporter, Renilla signal. HEK cells with a luciferase reporter of 2A StopGo recoding. Potency, µM (doses to about 57.5 µM), inactives show at the highest dose signal change, negative = less light. 120,000 compounds, 0.32% hits; active means well fitted falling curve with a large enough effect; inconclusive means small, poorly fitted or top-dose-only effect; inactive means no such curve, though single readings can be large or run the other way; further: nearly all actives have a fitted effect of over 55% in size; overnight with compound
StopGo FLuc = lowers the firefly signal of an FMDV 2A StopGo reporter; HEK cells with a luciferase reporter of 2A StopGo recoding; Potency, µM (highest dose often 57.5 µM), without a hit: at the highest dose signal change, negative = less light; 120,000 compounds, 0.23% hits; active = well fitted falling curve with a large enough effect; inconclusive = small, poorly fitted or top-dose-only effect; inactive = no such curve, though single readings can be large or run the other way; further: nearly all actives have a fitted effect of over 60% in size; overnight with compound
Numbers without * were called inactive; ? = inconclusive; & = joins results of further samples; [ ] = dose if it differs, or a comment. On the % scale 0 is the no-effect control and ±100 the full control effect; potency means the concentration at half of the fitted maximal effect. The list is partial (hit frequency here may not be typical).

SMILES	StopGo RLuc	StopGo FLuc
Cc1c(O)ccc2c(CN(C)CCO)cc(=O)oc12	0.4%	-13.5%
COC(=O)C1=C(C)NC(C)=C(C(=O)O[C@@H]2CCCN(Cc3ccccc3)C2)[C@@H]1c1cccc([N+](=O)[O-])c1	-0.6%	-7.4%[11.5 µM]
CN(CC(=O)NC(C)(C)C)Cc1coc(-c2ccc(Cl)cc2)n1	?	-29.3%
COc1ccc(CN2CC3=C(C2=O)C(c2ccc(SC)cc2)NC(=O)N3)cc1 (stereo not given)	13.4%	9.2%
COc1cc(S(=O)(=O)NCCc2c(C)[nH]c3ccccc23)c(C)cc1C	401.6%[activator]	8.0%
CC1CCCCN1C(=O)CSc1c2c(nc3cc(Cl)ccc13)CCCC2 (stereo not given)	-5.1%	-8.5%
CC(=O)Nc1nc2c(C)cc(NC(=O)Nc3ccccc3)cc2s1	10.2%	49.9%[activator]
CCC(Sc1nc(-c2ccc(F)cc2)nc2c1Cc1c(CO)cnc(C)c1O2)C(=O)Nc1ccc(F)cc1 (stereo not given)	-13.0%	-22.6%
CCc1ccccc1N1C(=O)N(Cc2ccccc2C)c2ccccc2S1(=O)=O	12.0%	-19.1%
O=S(=O)(c1ccccc1)c1nc(-c2ccc(F)cc2)oc1N1CCCCCC1	97.7%[activator]	-12.7%
CC1(C)CCc2c(cc(OCC(=O)c3ccccc3)c3c(-c4ccccc4)cc(=O)oc23)O1	34.2%[activator]	43.8%[activator]
CCN(CC)S(=O)(=O)c1ccc(S(=O)(=O)Nc2cccc(S(N)(=O)=O)c2)cc1	27.7%	1.0%
CCOc1ccc(C(=O)Nc2ccc3oc(-c4ccncc4)nc3c2)cc1	6.0%&-8.6%	17.2%&3.3%
OCCNc1nc(Nc2ccccc2)nc2nccnc12	12.8%	0.0%
CCC1CCCCN1C(=O)c1sc(-n2nc(C)c(Cc3ccccc3)c2C)nc1C (stereo not given)	3.9%	2.1%
COc1cccc(C(c2c(O)cc(C)n(Cc3ccco3)c2=O)N2CCN(c3ccccc3)CC2)c1 (stereo not given)	23.8%	-11.8%
COc1ccc(C2CC(=O)c3c(C)nc(Nc4ccc(F)cc4)nc3C2)c(OC)c1 (stereo not given)	0.7%	-1.0%
Cc1sc(-n2cnnn2)c(C(=O)Nc2ccc3c(c2)OCCO3)c1C	-0.1%	-19.2%
Cn1nc(C(=O)N2CCOCC2)cc1C(=O)Nc1cc(F)ccc1F	-0.1%	128.4%[activator]
CCONC(=O)c1ccc(N(C)C)cc1	0.0%	0.0%
N#Cc1c[nH]n2c(NC3CCCC3)c(-c3cccc(Cl)c3)nc12	-3.3%	-2.3%
CC1Sc2ccc(C(=O)Nc3nc(-c4ccc(F)cc4)cs3)cc2NC1=O (stereo not given)	?	?
Cn1ccnc1C(=O)c1cccc(NC(=O)C(=O)NCCO)c1	-12.8%	2.5%
Cc1ncc(CO)c2c1Oc1nc(-c3ccc(Cl)cc3)nc(SCC(=O)N3CCCCC3)c1C2	-4.8%	-13.4%
Cc1cccc(Nc2nc(-c3ccc(F)c(C)c3)cs2)n1	2.1%	245.7%[activator]
CN(C)C(=O)CN1CCN(Cc2ncc(-c3ccccc3)o2)CC1	-4.6%	14.9%
Cc1c(CC(=O)NCCc2ccccc2F)c(=O)oc2c(C)c3occ(C(C)(C)C)c3cc12	-6.2%	-8.8%
CCOC(=O)c1ccc(NC(=O)CCc2c(C)n(CC)c3cc(-c4ccccc4OC)nn3c2=O)cc1	-2.4%	-0.7%
CCC(=O)N1N=C(c2c(-c3ccccc3)c3cc(Cl)ccc3n(C)c2=O)CC1c1cccs1 (stereo not given)	-29.2%	?
CC(=O)c1cc(Cl)ccc1OCC(=O)N1CCC(c2ccccc2)=N1	-5.4%	0.6%
Cc1ccc(-c2nnc(Nc3ccc(C(=O)N(C)C)cc3)c3ccccc23)cc1S(=O)(=O)N(C)C	54.8%[activator]	1.7%
CCN(Cc1ccc(Br)s1)C(=O)c1cnccn1	8.4%	11.4%
CC(NC(=O)CSc1ccc(F)c(F)c1)c1nc2ccccc2[nH]1 (stereo not given)	-10.5%	-14.3%
O=C(NCc1ccncc1)c1cc(-c2cccnc2)nc2ccccc12	9.6%	7.8%
COc1cc(/C=C(\C#N)c2nc3ccccc3[nH]2)cc(Cl)c1OCc1ccccc1Cl	-5.6%	44.3%[activator]
CCc1cccc(NC(=O)c2cc3c(s2)-c2ccccc2OC3)c1	44.7%[activator]	125.6%[activator]
CCC(=O)Nc1sc2c(c1C#N)CCC(C(C)(C)CC)C2 (stereo not given)	-5.7%	16.5%
Cc1cc2c(cc1C)NC(CC(=O)Nc1ccccc1SC(F)(F)F)C(=O)N2 (stereo not given)	-5.3%	10.3%
Cc1ccc(Cl)cc1NC(=O)C(=O)c1cn(CC(=O)N2CCOCC2)c2ccccc12	-4.0%	3.1%
CCc1cccc(OCC(=O)Nc2ccc3oc(C)nc3c2)c1	-0.1%	22.0%

Among those listed so far, six have an aryl methoxy group:
SMILES	StopGo RLuc	StopGo FLuc
COc1ccc(CN2CC3=C(C2=O)C(c2ccc(SC)cc2)NC(=O)N3)cc1 (stereo not given)	13.4%	9.2%
COc1cc(S(=O)(=O)NCCc2c(C)[nH]c3ccccc23)c(C)cc1C	401.6%[activator]	8.0%
COc1cccc(C(c2c(O)cc(C)n(Cc3ccco3)c2=O)N2CCN(c3ccccc3)CC2)c1 (stereo not given)	23.8%	-11.8%
COc1ccc(C2CC(=O)c3c(C)nc(Nc4ccc(F)cc4)nc3C2)c(OC)c1 (stereo not given)	0.7%	-1.0%
CCOC(=O)c1ccc(NC(=O)CCc2c(C)n(CC)c3cc(-c4ccccc4OC)nn3c2=O)cc1	-2.4%	-0.7%
COc1cc(/C=C(\C#N)c2nc3ccccc3[nH]2)cc(Cl)c1OCc1ccccc1Cl	-5.6%	44.3%[activator]

Continuation.
SMILES	StopGo RLuc	StopGo FLuc
CCn1ccc2cc(S(=O)(=O)N3CCC(C(=O)N4CCC5(CC4)OCCO5)CC3)ccc21	12.4%	10.4%
Cc1nc(-c2cccc(S(=O)(=O)N3CCC(C(=O)NCc4ccccc4Cl)CC3)c2)no1	71.2%[activator]	-14.1%
COc1ccc(C(=O)Nc2nc3c(s2)CCCC3)cc1Cl	?	47.2%[activator]
COc1ccc(CNC(=O)C(Cc2ccccc2)NS(=O)(=O)c2ccc3c(c2)CCN3C(C)=O)cc1 (stereo not given)	40.9%[activator]	-18.4%
COc1ccc(-c2nnc(SCc3nnc(C)o3)n2CCc2ccccc2)cc1	52.1%[activator]	42.9%[activator]
COc1ccc(C(=O)Nc2ccc(-c3nc4ccccc4s3)cc2C)cc1Cl	0.8%	43.8%[activator]
Cc1ccc(S(=O)(=O)Nc2nc3ccccc3nc2Nc2ccc(F)cc2)cc1	9.3%	0.9%
CNC(=O)CNC(=O)c1ccc(F)cc1Br	-7.4%	5.9%
CCN(CC)S(=O)(=O)c1ccc2c(c1)nc(CN(C)C(=O)Nc1ccc(Cl)cc1)n2C	-5.4%	3.7%
Cc1cccc(CNC(=O)c2sc3ncnc(N(C)C4CCCCC4)c3c2C)c1	-2.5%	-2.2%
Cc1cc2oc(=O)cc(-c3ccccc3)c2c2occ(-c3ccccc3)c12	2.9%	1.7%
CCOc1ccc(CNC(=O)C2CCN(c3nc4ccccc4o3)CC2)cc1	-16.9%	-5.5%
CCOC(=O)c1ccc(Oc2coc3cc(OCc4ccccc4)ccc3c2=O)cc1	-18.6%	-9.2%
N#CCCN(C(=O)Cn1nc(Cc2cccnc2)c2ccccc2c1=O)c1ccccc1	-2.3%	-4.7%
Cc1ccc(OCC(=O)NCC(=O)OCc2cc(=O)n3nc(C(C)C)sc3n2)cc1	-9.3%	17.4%
CCc1ccc(Nc2sc(C(=O)c3ccc(F)cc3)c(N)c2S(=O)(=O)c2ccccc2)cc1	-4.2%	-6.7%
O=C(Nc1ccc2nc(SCCOc3ccccc3Cl)sc2c1)c1ccco1	10.7%	20.1%
CC(C(=O)Nc1ccc2[nH]c(=O)[nH]c2c1)N(C)Cc1c(F)cccc1Cl (stereo not given)	16.8%	20.2%
C[N+]1(CC#Cc2ccc(C#CC[N+]3(C)CCOCC3)cc2)CCOCC1	-4.7%	-2.4%
COc1cccc(C2=NS(=O)(=O)N(C)C(C(=O)Nc3cccc(O)c3)=C2)c1	?	-2.6%
CCN(CC)c1ccc(C(=S)N(C)C)cc1	18.3%	0.0%
CC(C)c1cnc2c(c1SCC(=O)NCc1ccccc1Cl)c(=O)n(C)c(=O)n2C	1.7%&6.8%	6.8%&-12.6%
CCOc1ccc(CCNC(=O)c2cc3cc4cc(OC)ccc4nc3s2)cc1OCC	-3.4%	130.5%[activator]
Cn1c(SCC(=O)N2CCOCC2)ncc(C(=O)Nc2ccc(F)cc2)c1=O	-4.7%	-17.4%
COc1ccc(NC(=O)NC2COc3ccccc3C2)c(OC)c1 (stereo not given)	13.7%	-24.1%
Cc1cc(NC(=O)N(C)CCc2c(C)nn(C)c2C)ccc1Br	-2.4%	36.7%[activator]
CCCCCNC(=O)c1nccnc1N	-10.6%	39.1%[activator]
CC(C)N(CC(N)=O)Cc1cccc2cccnc12	-9.7%	2.8%
Cc1ccc(-c2cn3c(n2)sc2cc(C(=O)NCc4cccs4)ccc23)cc1	111.1%[activator]	32.8%[activator]
COc1cccc2oc(C(=O)c3cc(C)sc3C)cc12	6.9%[1.06 µM]	-51.7%

Record cards (already shown).
Record of Cc1ccc(-c2cn3c(n2)sc2cc(C(=O)NCc4cccs4)ccc23)cc1 : StopGo RLuc: 111.1%[activator]; StopGo FLuc: 32.8%[activator]
Record of CCCCCNC(=O)c1nccnc1N : StopGo RLuc: -10.6%; StopGo FLuc: 39.1%[activator]
Record of COc1cccc2oc(C(=O)c3cc(C)sc3C)cc12 : StopGo RLuc: 6.9%[1.06 µM]; StopGo FLuc: -51.7%

The list goes on:
SMILES	StopGo RLuc	StopGo FLuc
COc1ccc(NC(=O)c2cc3nc(-c4ccc(C)c(C)c4)cc(C(F)(F)F)n3n2)cc1	-10.8%	-13.3%
COCCn1c(=O)c2c(nc(-n3nc(C)cc3C)n2CCc2ccccc2)n(C)c1=O	5.0%	1.9%
O=C1C(C2=CCCCC2)CCCC1C1=CCCCC1 (stereo not given)	-2.7%	-5.0%
CCOc1ccc(NC(=O)C(CC)n2nc(-c3ccc(C)c(C)c3)ccc2=O)cc1 (stereo not given)	-13.2%	-15.4%
O=C(CSc1ccc2ccccc2n1)Nc1nsc(-c2ccc(Cl)cc2)n1	-1.1%	5.6%
COc1ccccc1CNc1ccc(-c2nc(-c3cccc(C)c3)no2)cc1[N+](=O)[O-]	-5.7%	19.8%
Cc1cccc(C(=O)N2CCc3cc(CNS(=O)(=O)c4ccc(F)c(Cl)c4)ccc32)c1	-6.7%	-18.0%
Cc1noc(C)c1S(=O)(=O)N(C)CC(=O)Nc1ccccc1C(C)(C)C	-4.3%	-5.4%
Cc1oc2cc(OCC(=O)NCC(O)CO)ccc2c(=O)c1Oc1ccccc1 (stereo not given)	-4.9%	-7.8%
CN(CC(=O)NC(=O)NC1CC1)Cc1cccc(F)c1	-15.9%	-10.7%
Cc1cc(NC(=O)C(=O)c2c[nH]c3ccc(Br)cc23)no1	-0.1%	29.2%
Cc1ccc(-c2csc(CCn3nc(C)c4c(C(F)(F)F)cc(=O)[nH]c43)n2)cc1	5.1%	12.9%
O=C(Nc1cccc(Cl)c1)c1cc(-c2cccc(O)c2)on1	75.7%	116.3%[activator]
Cc1ccc(C)n1-c1nnc(N2CCCC(C(=O)NCc3ccc(Cl)cc3)C2)s1 (stereo not given)	-14.2%	0.0%
COC(=O)c1ccc(C2C(C#N)=C(N)Oc3c2ccc2ccccc32)cc1 (stereo not given)	18.7%	30.7%[activator]
CN(C(=O)c1cc2c(s1)-c1ccc(Cl)cc1SC2)c1cccc(C(F)(F)F)c1	-4.3%	-6.7%
Cc1cc(C)c(C(=O)C(C)Oc2ccc(C#N)cc2)cc1C (stereo not given)	-4.6%	0.2%
COc1ccc(C(=O)Nc2ccc3oc(-c4ccc5ccccc5c4)nc3c2)cc1Br	-11.5%	44.5%[activator]
Cc1ccc(/C=N/NS(=O)(=O)c2ccc(C)c([N+](=O)[O-])c2)s1	9.1%[1.06 µM]	?
CCC(Sc1nnc2c3ccccc3n(CC)c2n1)C(=O)Nc1nnc(C(C)C)s1 (stereo not given)	-3.8%	-6.7%
O=C(NCC1CC1)c1cn(Cc2ccccc2)c2ccccc12	0.0%	13.7%
O=C(O)CSCc1ccccc1Cl	-5.0%	12.7%
Cc1ccc(-c2nc(CS(=O)CC(=O)O)c(C)o2)cc1 (stereo not given)	10.3%	0.0%
CCc1c(C)sc(NC(=O)Cc2ccc(Cl)cc2)c1C#N	-0.2%	3.8%
CCOC(=O)CC(NC(=O)c1cc2cc(OC)ccc2oc1=O)c1ccc(C)cc1 (stereo not given)	4.8%	3.6%
O=C1Nc2c(c(=O)[nH]c(=O)n2-c2ccc(F)cc2)C1(NS(=O)(=O)c1ccc(Cl)cc1)C(F)(F)F (stereo not given)	-8.0%	-19.2%
CSc1nc(C)c(CCC(=O)NC(C)c2ccc(F)cc2)c(C)n1 (stereo not given)	-3.2%	4.2%
COc1ccccc1CN(C)C(=O)CCn1ccc2ccccc21	97.7%[activator]	-5.4%
COc1ccc(CCNC(=O)c2nc(SCc3ccccc3F)ncc2Cl)cc1OC	?	?
Fc1ccc(-n2ncc3c(N4CCN(Cc5ccccc5)CC4)ncnc32)cc1	-4.4%	6.1%
CCC(CC)C(=O)Nc1nnc(SCc2cc(=O)n3cccc(C)c3n2)s1	-18.3%	-38.2%
O=C(NCc1cccc(Cl)c1)NCc1noc2ccccc12	24.1%	33.5%[activator]
Cc1cccc(C(=O)Oc2c(Sc3ccccc3)c(C)nn2C(C)(C)C)c1	7.6%	-9.7%

Bioassay records: PubChem BioAssay, National Center for Advancing Translational Sciences (NCATS)
